Vif A3G = HIV-1 Vif–A3G interaction blockers – biochemical, TR-FRET, GST-Vif 1-94, biotin-A3G peptide, dose response retest, primary screen (AID 1117319); TR-FRET GST-Vif / biotin-A3G peptide binding; higher % means a stronger effect; test concentration not given here; strong numbers were not always called active; inhibition, %, or IC50 in µM where a hit was titrated; hit rate 0.57% among 260,000;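 active means above the screen mean plus three standard deviations and confirmed in dose response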;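 further: Vif residues 1-94 fused to GST binding biotinylated APOBEC3G peptide 110-148; 0% = full assay without inhibitor and 100% = GST in place of GST-Vif; retest series ran down from 100 µM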
HNF4A DNA FP = change in binding of human HNF4 alpha to DNA; P41235; hit rate 0.3% among 360,000; activity change, % at 10 µM; HNF4a-FITC DNA binding, fluorescence polarization, 1 h; in the data active means activity change above about 30%, passing the limit was not always enough;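 further: controls were the assay level and a saturating level of protein; the project sought stronger binding though the title names inhibitors; some compounds called inactive have numbers as strong as hits; positive values seem to mean higher polarization but the record does not say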
Target sequence (P41235 whole entry, looked up): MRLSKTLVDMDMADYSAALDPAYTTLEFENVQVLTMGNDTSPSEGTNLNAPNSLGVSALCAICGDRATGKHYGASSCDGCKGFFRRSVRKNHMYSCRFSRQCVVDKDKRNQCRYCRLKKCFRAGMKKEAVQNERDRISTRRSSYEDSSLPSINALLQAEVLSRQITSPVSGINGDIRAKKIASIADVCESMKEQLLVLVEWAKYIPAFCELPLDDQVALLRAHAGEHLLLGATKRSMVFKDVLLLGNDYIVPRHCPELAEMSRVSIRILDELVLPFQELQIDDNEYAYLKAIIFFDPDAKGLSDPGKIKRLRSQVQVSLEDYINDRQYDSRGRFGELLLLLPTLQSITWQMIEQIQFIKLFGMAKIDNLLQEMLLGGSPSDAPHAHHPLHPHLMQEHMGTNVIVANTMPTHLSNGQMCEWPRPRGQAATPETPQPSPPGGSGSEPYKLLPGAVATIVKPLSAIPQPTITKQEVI
* marks the source's active call; other numbers are inactive results. Only part of the results is shown; rates above refer to the full screens.

Each structure is followed by: Vif A3G, HNF4A DNA FP
> COc1ccc(N2CCN(C(=O)c3ccc4c(c3)CCN4S(C)(=O)=O)CC2)cc1
→ -7%, -1.6
> COc1cccc(C(=O)NCCS(=O)(=O)N2CCN(c3ccccc3)CC2)c1OC
→ -14%, -0.4
> Cc1cc(C)n2c(SCC(=O)N(CCC#N)c3ccc4c(c3)OCCO4)nnc2n1
→ 10%, -12
> COc1ccc(CCNC(=O)CSc2nc3c(sc(=S)n3-c3ccccc3)c(=O)[nH]2)cc1OC
→ 1%, -2.2
> COc1cccc(CCNC(=O)c2cc(COc3ccc(C)c(C)c3)on2)c1OC
→ 1%, -2.7
> C=CCSc1nc2c(N)ncnc2n1C1OC(CO)C(O)C1O (stereo not given)
→ 2%, 2.0
> CC(OCC(O)CN1CCN(S(=O)(=O)c2ccc(Cl)cc2)CC1)c1ccc(Cl)cc1 (stereo not given)
→ -8%, 3.2
> Cc1ccc(C)c(OCc2cc(C(=O)N3CCN(C4CCCCC4)CC3)no2)c1
→ 3%, 3.3
> Cc1cnc(NS(=O)(=O)c2ccc(N)cc2)nc1-c1ccccc1O
→ 13%, -3.8
> CC(C)Cn1c(SCC(=O)NC2CC2)nc2ccccc21
→ 5%, 2.1
> C[C@@H]1Cn2cnc(C(=O)N[C@@H](Cc3c[nH]c4ccccc34)C(=O)OC(C)(C)C)c2C(=O)N1
→ -2%, 0.7
> COC(=O)C[C@H]1C[C@@H]2c3cc(NC(=O)CN(C)C)ccc3O[C@@H]2[C@H](CO)O1
→ 1%, -5.0
> C/C(=N\NC(=O)c1ccccc1-n1cccc1)c1ccccn1
→ -5%, 1.6
> COc1ccc(NC(=O)C2CCN(S(=O)(=O)c3ccc(Cl)c(C(F)(F)F)c3)CC2)cn1
→ -4%, 4.6
> CCN(CC)C(=O)C1=C(C)N(CCCOC)C(=O)C(CC(=O)NCC2CCCCC2)C1 (stereo not given)
→ 4%, -4.1
> C[C@@H]1CN([C@@H](C)CO)S(=O)(=O)c2ccc(C#CC3CCCCC3)cc2O[C@@H]1CN(C)Cc1cccnc1
→ -4%, -0.9
> N#Cc1cnn(-c2cc(Cl)ccc2Cl)c1N
→ 10%, 0.2
> CNc1n[nH]c(-c2ccccc2)n1
→ -2%, 0.6
> COc1ccc(S(=O)(=O)N2CCN(CC(=O)N3CCNC3=O)CC2)cc1OC
→ -1%, -1.9
> COc1cccc(-c2ccc3c(c2)O[C@H](CN(C)C(=O)c2ccccc2F)[C@H](C)CN([C@H](C)CO)S3(=O)=O)c1
→ -5%, 0.2
> C[C@@H]1CN([C@H](C)CO)C(=O)CCCn2nncc2CO[C@H]1CN(C)S(=O)(=O)c1ccc2ccccc2c1
→ -7%, 1.0
> Cc1cccc(C)c1OCC(O)CN1CCN(C(=O)c2ccccc2)CC1 (stereo not given)
→ -4%, 2.6
> COc1ccc(S(=O)(=O)N(C)C[C@H]2OCc3cnnn3CCCC(=O)N([C@@H](C)CO)C[C@H]2C)cc1
→ -1%, 4.0
> CCOc1ccc2nc(NC(=O)c3cccc(N4C(=O)CCC4=O)c3)sc2c1
→ -11%, -2.5
> CCC(=O)N(C)C[C@@H]1Oc2ncc(Br)cc2C(=O)N([C@H](C)CO)C[C@H]1C
→ 0%, 0.9
> NS(=O)(=O)c1cccc(NC(=O)CSc2nnc(NC3CC3)s2)c1
→ 1%, -1.4
> Cc1ccc(S(=O)(=O)NN=C2CC(C)(C)CC(=O)C2(C)C)cc1
→ -5%, 1.4
> COc1ccc2sc(C)cc(=O)c2c1
→ 0%, 1.8
> COc1ccc(C2CC(=O)C=C3c4ccc(OC)cc4CCC32)cc1 (stereo not given)
→ -24%, -0.6
> CCCCCCn1c(=O)n2n(c1=O)[C@@H]1CN(S(=O)(=O)c3ccc(C)cc3)C[C@]1(O)[C@@H](OC(=O)NCc1ccccc1F)C2
→ 0%, -0.4

Of the compounds above, these have fluorine:
Each structure is followed by: Vif A3G, HNF4A DNA FP
> COc1ccc(NC(=O)C2CCN(S(=O)(=O)c3ccc(Cl)c(C(F)(F)F)c3)CC2)cn1
→ -4%, 4.6
> COc1cccc(-c2ccc3c(c2)O[C@H](CN(C)C(=O)c2ccccc2F)[C@H](C)CN([C@H](C)CO)S3(=O)=O)c1
→ -5%, 0.2
> CCCCCCn1c(=O)n2n(c1=O)[C@@H]1CN(S(=O)(=O)c3ccc(C)cc3)C[C@]1(O)[C@@H](OC(=O)NCc1ccccc1F)C2
→ 0%, -0.4

Additional compounds follow.
Each structure is followed by: Vif A3G, HNF4A DNA FP
> Cc1nn(C2CCS(=O)(=O)C2)c(C)c1CN(C)C(=O)c1ccc(F)cc1 (stereo not given)
→ 5%, 2.0
> Nc1nc(N)c2cc(CNc3ccc(Cl)c(Cl)c3)ccc2n1
→ 2%, 3.2
> COc1ccc(CC(=O)NCc2cccc(Cl)c2)cc1S(=O)(=O)N1CCOCC1
→ 4%, 1.4
> CC(=O)c1sc(NC(=O)CCS(=O)(=O)c2ccc(F)cc2)nc1C
→ -14%, 5.2
> COc1cc(N=Nc2ccc(Br)cc2)cc(C=O)c1O
→ 23%, -7.2
> CC1CN(C(=O)COC(=O)c2cncc(Br)c2)CC(C)O1 (stereo not given)
→ 2%, 0.3
> COc1ccc(CN2C(=O)c3ccccc3C2=O)cc1C(=O)N(C)CC(=O)Nc1ccc(C)cc1
→ 3%, 2.5
> O=c1[nH]cc(CCc2ccccc2)c(=O)[nH]1
→ 7%, -2.2
> CCC1Oc2ccccc2N(CC(=O)N2CCCC2)C1=O (stereo not given)
→ 0%, 1.1
> COCCCn1c(C(=O)Nc2ccc3c(c2)OCO3)cc2c(=O)n3cccc(C)c3nc21
→ -5%, 29
> Cn1cc(C=CC(=O)O)c2nccnc21
→ -7%, 1.0
> Cc1ccc(S(=O)(=O)N(C)C[C@H]2OCc3cnnn3CCCC(=O)N([C@@H](C)CO)C[C@H]2C)cc1
→ 4%, -1.5
> Cc1occc1C(=O)N(C)CC1CCCN(CCc2ccc(Cl)cc2)C1 (stereo not given)
→ 2%, -0.6
> C[C@@H]1CN([C@@H](C)CO)C(=O)CCCn2nncc2CO[C@H]1CN(C)C(=O)Cc1ccccc1
→ 1%, 2.7
> O=C(CCSc1nc(-c2ccccc2)c(-c2ccccc2)o1)N1CCCCC1
→ 2%, 4.1
> C[C@H]1CN([C@@H](C)CO)C(=O)CCCn2nncc2CO[C@H]1CN(C)S(=O)(=O)c1ccc2c(c1)OCCCO2
→ -2%, -0.8
> C[C@@H]1CN([C@H](C)CO)C(=O)CCCn2nncc2CO[C@@H]1CN(C)S(=O)(=O)c1ccc(Cl)cc1
→ 1%, -0.3
> C[C@@H]1CN([C@H](C)CO)S(=O)(=O)c2ccc(C#CC3CCCC3)cc2O[C@H]1CN(C)C(=O)Cc1ccccc1
→ 7%, 0.0
> CCCCCCN1C[C@@H](O)[C@H](n2cc(C3CC3)nn2)C[C@@H]1c1ccc(OC)cc1
→ 0%, 3.9
> COc1ncnc2c1ncn2CCCN1CCN(Cc2ccc(C)cc2)CC1
→ 2%, -1.3
> Cc1cccc(NC(=O)C(C)Sc2ncnc3sccc23)c1 (stereo not given)
→ -2%, 2.6
> CSc1ncnc2c1ncn2CCCN1CCN(C(=O)C2CC2)CC1
→ -5%, -1.1
> CN(C)c1ccc(C=NN2C(=O)CSC2=S)c(Cl)c1
→ 1%, 87*
> Cc1onc(-c2ccccc2)c1-c1nnc(COC(=O)c2ccc(N(C)C)cc2)o1
→ -5%, 2.4
> Nc1ccccc1-n1nc2ccc3ccccc3c2n1
→ -6%, 0.5
> COc1ccc(C(=O)Nc2cc(S(=O)(=O)N3CCCCC3)ccc2C)cc1
→ -4%, -0.5
> O=C1Nc2cccc3c2N(CCC3)C2=C1CCC2
→ 19%, 2.1
> CC(C)CC1C(=O)N(Cc2cn(CCC3OCCCO3)nn2)CCS(=O)(=O)N1Cc1ccc(-c2cccc(N(C)C)c2)cc1 (stereo not given)
→ -8%, -0.1
> C[C@H](CO)N1C[C@H](C)[C@H](CN(C)Cc2ccc(C(=O)O)cc2)OCc2ccccc2-c2c(n(C)c3ccccc23)C1=O
→ -5%, 1.5
> C[C@H](NC(=O)C1CCN(S(=O)(=O)c2ccccc2)CC1)C(=O)NCc1cccnc1
→ 0%, -0.8

Continuation:
mol,Vif A3G,HNF4A DNA FP
Cc1ccc(OCC(=O)NNC(=O)c2ccc(F)c(S(=O)(=O)N3CCOCC3)c2)cc1C,-3%,0.8
Cc1ccccc1Nc1nc(N)nc(COC(=O)c2nn(C)c(=O)c3ccccc23)n1,1%,2.0
C/C(=N/NC(=O)c1nnn(-c2nonc2N)c1CSc1ccc(Cl)cc1)c1ccncc1,-2%,-6.7
O=P(O)(Cc1ccccc1)c1ccccc1,-5%,-1.0
CC1(C)C(C(N)=O)C(=O)NC(=O)C1C(N)=O (stereo not given),-4%,-1.1
COCC(=O)N1C[C@H]2CON(C)[C@H]2C[C@H]1c1cccc(-c2ccccc2)c1,-3%,-9.3
N#CC(c1ccc(N)cc1)C(CC(=O)c1ccccc1)c1ccccc1 (stereo not given),0%,-1.5
CCOc1ccc(/C=N/NC(=O)c2ccncc2)cc1OC,-1%,5.1
CN1OC[C@@H]2CN(S(=O)(=O)c3cccc(C(F)(F)F)c3)[C@H](c3ccc(-c4cccnc4)cc3)C[C@@H]21,6%,-1.2
CN(Cc1cc(Cl)cc(Cl)c1)[C@H]1C[C@H]2c3[nH]c4ccccc4c3CCN2C(=O)[C@H]1CO,0%,1.9
CC(C)C1C(=O)N(Cc2cn(CCC3OCCO3)nn2)CCS(=O)(=O)N1Cc1ccc(-c2ccc(F)nc2)cc1 (stereo not given),0%,0.7
O=C(Nc1ccn(CCCN2CCN(c3ccccc3)CC2)c(=O)n1)OCc1ccccc1,-1%,-2.6
CCN(CC)C(=O)C1=C(C)N(CCC2=CCCCC2)C(=O)C(CC(=O)NCCCN(C)C)C1 (stereo not given),6%,-2.2
CCCCCC(=O)N1C[C@@H](n2cc(-c3ccc(F)cc3)nn2)[C@H](O)C[C@@H]1c1ccccc1,-8%,0.3
C[C@H]1CN([C@@H](C)CO)S(=O)(=O)c2ccc(C#CC3CC3)cc2O[C@@H]1CN(C)S(C)(=O)=O,1%,0.4
CCCCCCNC(=O)O[C@@]12CN(S(=O)(=O)c3ccc(C)cc3)C[C@]1(O)Cn1c(=O)n(CCCCCC)c(=O)n1C2,0%,1.2
C/C(NCCc1ccccc1)=C1/CCOC1=O,-1%,-0.7
CCN(CC)C(=O)C1=C(C)N(CCCOC)C(=O)C(CC(=O)NC(c2ccccc2)c2ccccc2)C1 (stereo not given),-8%,-3.0
C[C@@H]1CN([C@H](C)CO)C(=O)c2cc(NC(=O)Nc3ccc(F)cc3)ccc2O[C@@H](C)CCCCO[C@H]1CN(C)Cc1ccc(C(=O)O)cc1,-5%,-5.6
O=C(O)CSc1ccn(Cc2ccccc2)c1,-1%,1.2
COCC(=O)N(C)C[C@@H]1Oc2cc(Br)ccc2S(=O)(=O)N([C@H](C)CO)C[C@H]1C,-2%,-0.6
COc1ccc2[nH]c(=O)c(CN(C(C)=O)c3cc(C)ccc3C)cc2c1,-3%,-0.8
CCCCN1CC(C)(C)[C@H](CC(=O)Nc2ccccc2)C1=O,3%,1.2
C/C=C/c1ccc2c(c1)O[C@H](CN(C)CC1CCOCC1)[C@@H](C)CN([C@H](C)CO)S2(=O)=O,4%,0.0
Cc1noc(C)c1S(=O)(=O)N(C)C[C@H]1OCc2cnnn2CCCC(=O)N([C@H](C)CO)C[C@H]1C,4%,-3.8
COC1OCC(O)C(NC(=O)N(C)N=O)C1O (stereo not given),-4%,-0.7
Cc1cccc(S(=O)(=O)N(C)C[C@@H]2OCc3cnnn3CCCC(=O)N([C@H](C)CO)C[C@H]2C)c1,1%,-3.1
Cc1ccc(S(=O)(=O)NN=CC2(c3ccccc3)CC2)cc1,1%,3.0
FC(F)(F)c1cccc(CC2CN(Cc3ccccc3)Cc3ccccc3N2c2cc(Cl)cc(Cl)c2)c1 (stereo not given),-2%,-7.3
CC1=C(C(=O)N(C)C)CC(CC(=O)NCCCN(C)C)C(=O)N1Cc1ccc(C(C)(C)C)cc1 (stereo not given),4%,1.3
O=C(c1ccccc1)N(C(=O)c1ccccc1)c1ccccc1,-6%,1.2
CC(C)c1ncc(CO)n1Cc1c(Cl)cccc1Cl,-3%,0.8
COc1ccc(S(=O)(=O)N=N/C=C2\C=CC=CN2O)cc1OC,-8%,-2.3
CCOc1ccccc1OCC(=O)NC1CCSc2ccccc21 (stereo not given),-6%,-0.1
COc1ccc(S(=O)(=O)N2CCOCC2)cc1C(=O)Nc1cccc(C(=O)NC2CC2)c1,-2%,-2.3
O=C(CSc1ncccn1)NC(=O)NC1CCCC1,5%,-0.3
Cc1ccc(S(=O)(=O)N2C[C@H]3C(=O)C[C@@H](c4ccccc4)N(S(=O)(=O)c4ccc(C)cc4)[C@H]3C[C@H]2c2ccc(Cl)cc2)cc1,3%,-2.0
COc1ccccc1C(=O)COC(=O)C1CCN(S(=O)(=O)c2ccccc2)CC1,-2%,1.2
C[C@H]1CN([C@@H](C)CO)C(=O)CCCn2nncc2CO[C@@H]1CN(C)S(=O)(=O)c1ccccc1,-3%,-0.4

At a glance, part of the list above.
mol,Vif A3G,HNF4A DNA FP
N#Cc1cnn(-c2cc(Cl)ccc2Cl)c1N,10%,0.2
CNc1n[nH]c(-c2ccccc2)n1,-2%,0.6
COc1ccc(S(=O)(=O)N2CCN(CC(=O)N3CCNC3=O)CC2)cc1OC,-1%,-1.9
COc1cccc(-c2ccc3c(c2)O[C@H](CN(C)C(=O)c2ccccc2F)[C@H](C)CN([C@H](C)CO)S3(=O)=O)c1,-5%,0.2
C[C@@H]1CN([C@H](C)CO)C(=O)CCCn2nncc2CO[C@H]1CN(C)S(=O)(=O)c1ccc2ccccc2c1,-7%,1.0

Source: PubChem (several laboratories)
